# High-throughput results (PubChem)
# CBX7 AlphaScr: CBX7 inhibition, primary AlphaScreen; O95931; AlphaScreen His6-CBX7 / biotin-H3K27me3 peptide binding; hits give low values; normalised signal (fraction of DMSO) (test concentration not listed); 66,000 compounds, 1.1% hits; AID 1224903; in the data active = normalised signal below about 0.5;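 also: 100 nL library stock added to about 20 µL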
# Target sequence (O95931 whole entry, looked up): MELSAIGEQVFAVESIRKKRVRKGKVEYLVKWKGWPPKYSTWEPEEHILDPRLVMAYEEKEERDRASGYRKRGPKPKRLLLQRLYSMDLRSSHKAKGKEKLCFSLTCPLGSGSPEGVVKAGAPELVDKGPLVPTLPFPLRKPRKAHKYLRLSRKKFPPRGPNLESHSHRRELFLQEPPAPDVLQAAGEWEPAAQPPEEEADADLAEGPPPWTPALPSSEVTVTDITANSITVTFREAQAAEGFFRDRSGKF
# CBX7 AlphaScr z-score: recorded beside CBX7 AlphaScr, whose call it bears; z-score; measured here: z-score of CBX7 signal; some inactives read as strong as hits; reference of the scale not given here;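 same signal on another scale; lower means less binding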
# * hit, by the source's call. An excerpt. The share of hits here may be higher or lower than overall.
# Values run as follows: CBX7 AlphaScr	CBX7 AlphaScr z-score
Cc1ccc(-c2nc(CSCC(=O)N3CCCCCC3)c(C)o2)cc1
 : 0.89	-2.1
O=C(Nc1ccc(F)cc1)c1cnc2ccccn2c1=O
 : 0.81	-2.7
Cc1cccc(C)c1NC(=O)CN1C(=O)COc2ccc(S(=O)(=O)N3CCC(C)CC3)cc21
 : 1.1	1.5
CCOCCCNC(=O)c1ccc2c(c1)nc(C)n2-c1cc(C)ccc1OC
 : 0.98	-0.95
Cc1cccc(Cc2c(C)nc3c(C(=O)O)cnn3c2C)c1
 : 0.98	-0.39
COc1ccc(C(=O)Nc2cccc(-c3nc4ccccc4[nH]3)c2)cc1
 : 1.1	1.1
O=C(NCc1ccccc1Cl)c1ccc2c(c1)N(Cc1ccc(Cl)cc1)C(=O)c1ccccc1S2=O (stereo not given)
 : 0.97	-1.2
c1ccc(-c2noc(CSc3nnnn3-c3ccccc3)n2)cc1
 : 1.1	1.9
O=C(CN1C(=O)COc2ccc(S(=O)(=O)N3CCOCC3)cc21)NCCc1ccccc1
 : 1.1	4.3
Cc1cc(C)c(C(N)=O)c(Nc2ccc(Cl)cc2)n1
 : 0.97	-0.43
CCOC(=O)N1CCc2c(sc(NCc3cccnc3)c2C(=O)Nc2ccccc2OCC)C1
 : 0.86	-7.5
CCOC(=O)c1cnc2ccc(OCC)cc2c1Nc1ccc2c(c1)OCCO2
 : 0.87	-3.4
Cc1ccc(-n2nc3c(c2NC(=O)CC2CCCCC2)CSC3)cc1
 : 1.2	2.8
COc1ccccc1-c1cc(C(=O)N2CCCc3ccccc32)no1
 : 1	1.2
NC(=O)C1(N2CCCCC2)CCN(c2nc(-c3ccccc3)cs2)CC1
 : 0.62	-1.4
COC(CNC(=O)C1CCN(Cc2nc(-c3ccc(Cl)cc3)oc2C)CC1)OC
 : 1.2	2.8
O=C(NC1CCCCC1)C(c1ccc(Cl)cc1)N1CCC2(CC1)OCCO2 (stereo not given)
 : 1.2	1.6
Cc1cccc(N2CCN(C(=O)Cn3ncc4c3-c3ccccc3OC4)CC2C)c1 (stereo not given)
 : 0.77	-6.5
Cc1ccn2c(NC(=O)c3ccccc3)c(-c3ccccc3)nc2c1
 : 0.98	-0.42
Cc1ccc(NC2c3ccccc3C(=O)N2c2cccnc2)cc1 (stereo not given)
 : 0.9	-1.3
O=C(NCc1ccc2c(c1)OCO2)c1cnc2ccccn2c1=O
 : 0.91	-1.3
Cc1ccc2cc(CCNC(=O)Cc3ccc(F)cc3)c(=O)[nH]c2c1C
 : 1.1	0.7
Cc1nc2nc(C)c(CCC(=O)NCCCc3ccccc3)c(C)n2n1
 : 1.5	2.3
C=CCn1c(SCC(=O)Nc2ccc(F)c(Cl)c2)nnc1-c1cccnc1
 : 1.1	1.3
COc1ccc(-c2nc(C)ncc2-c2csc(C)n2)c(O)c1
 : 0.99	-0.51
Cc1ccc(-c2nn(C)c(=O)c3ccccc23)cc1CNC(=O)COc1ccccc1
 : 1	-0.034
Cc1cccc(NC(=O)c2ccc(NC(=O)Cc3nn(C)c(=O)c4ccccc34)cc2)c1
 : 0.91	-1.4
CCOC(=O)N1CCC(Nc2cc(C)nc3c(-c4ccccc4OC)c(C)nn23)CC1
 : 0.99	-0.14
COC(=O)c1ccc(C2CC(=O)Nc3cc4c(cc32)OCO4)cc1 (stereo not given)
 : 0.97	-1.1
Cc1onc(-c2ccccc2)c1C(=O)Nc1ccc(Br)cc1F
 : 1	1.1

# Additional structures:
# Values run as follows: CBX7 AlphaScr	CBX7 AlphaScr z-score
Cn1c(=O)c(Cc2cccc(Cl)c2)nc2ccccc21
 : 0.96	-1.1
COc1ccc(Cl)cc1S(=O)(=O)NCc1cccnc1
 : 1	0.98
Cn1nc(-c2ccccc2F)c2cc(C(=O)NC3CC3)sc21
 : 0.93	-1.2
CC1CCc2oc3ccc(NS(=O)(=O)c4ccc(C(C)C)cc4)cc3c2C1 (stereo not given)
 : 0.9	-1.2
CCc1nnc(NC(=O)CSc2nnc(CNC(=O)COc3ccc(Cl)cc3)o2)s1
 : 1	1.2
O=C(CC1Oc2ccccc2NC1=O)NCCCN1CCC(Cc2ccccc2)CC1 (stereo not given)
 : 1.3	1.6
C=CCN(C(=O)Cn1c(C(=O)OC)cc2sc(Cl)cc21)c1ccccc1
 : 1	0.25
Cc1c(C(=O)NCc2cccs2)oc2ccc(S(=O)(=O)N3CCC(C)CC3)cc12
 : 1	-0.045
CCCCN(C)CCCNC(=O)CN1N=C(c2ccccc2)CCC1=O
 : 1.1	0.84
COc1ccc(-c2cc(C(=O)Nc3ccc(C#N)cc3)no2)cc1OC
 : 0.98	-0.41
COc1ccc(CCn2c(=O)c3cccnc3n(CC(=O)Nc3ccc(C)c(F)c3)c2=O)cc1OC
 : 1.1	2.1
Cc1cccc2c1-c1sc(C(=O)N3CCN(C)CC3)cc1CO2
 : 1.1	1.8
CCCCCn1c(=O)[nH]c2cc(C(=O)N3CCN(c4ccccn4)CC3)ccc2c1=O
 : 1	0.87
Cn1c(CC(=O)NCc2ccccc2)c(Sc2ccccc2)c2ccccc21
 : 1	0.19
COc1ccc(C(=O)Nc2cc(-c3nc4ccccc4o3)ccc2Cl)cc1OC
 : 1.1	1.1
CCc1ccccc1Nc1nc(-c2sc(NC(=O)c3ccccc3)nc2C)cs1
 : 1	0.54
CCn1cc(C(=O)Nc2cc(C)nn2C)c(=O)c2ccc(C)nc21
 : 1	0.94
Cc1cccc(CN2C(=O)CSc3ccc(C(=O)NCc4ccccn4)cc32)c1
 : 0.93	-2.8
CCN(c1ccccc1)S(=O)(=O)c1ccc2c(c1)CCN2C(C)=O
 : 1	0.12
Cc1cccc(-c2noc(-c3cccc(Br)c3)n2)c1
 : 1.2	5.5
O=C(CCNC(=O)Cn1ccc2ccccc2c1=O)NCc1ccc(F)cc1
 : 0.98	-0.56
C=CCN(C(=O)CCc1nc(-c2ccc(C)cc2)no1)c1ccccc1
 : 0.98	-0.36
COc1ccccc1CNC(=O)c1ccc2c(c1)N(Cc1ccccc1)C(=O)CS2
 : 0.92	-1
O=C(NCc1cccnc1)C1CC(=O)N(CCc2ccccc2)C1 (stereo not given)
 : 1	2
Cc1cc2cc(CCNC(=O)c3cccc4ccccc34)c(=O)[nH]c2cc1C
 : 0.9	-0.68
CCc1nc(NCC2CCCO2)c(C#N)c2c1COC(C)(C)C2 (stereo not given)
 : 1	0.094
Cc1ccc(NC(=O)Cn2cnc3sc(C)c(C)c3c2=O)c(C)c1
 : 1.1	3
Cc1nc2ncnn2c(C)c1CCC(=O)Nc1ccc(CN2CCCC2)cc1
 : 1	0.67
O=C(Nc1ccccc1C(=O)N1CCCCC1)c1cccc(S(=O)(=O)N2CCCCC2)c1
 : 1.1	1.3
O=C(NCc1ccc(F)cc1)c1cccc2c1C(=O)N(Cc1cccnc1)C2
 : 1	0.025

# The last seven records of the part above are carried over, then new ones follow.
# Values run as follows: CBX7 AlphaScr	CBX7 AlphaScr z-score
O=C(NCc1cccnc1)C1CC(=O)N(CCc2ccccc2)C1 (stereo not given)
 : 1	2
Cc1cc2cc(CCNC(=O)c3cccc4ccccc34)c(=O)[nH]c2cc1C
 : 0.9	-0.68
CCc1nc(NCC2CCCO2)c(C#N)c2c1COC(C)(C)C2 (stereo not given)
 : 1	0.094
Cc1ccc(NC(=O)Cn2cnc3sc(C)c(C)c3c2=O)c(C)c1
 : 1.1	3
Cc1nc2ncnn2c(C)c1CCC(=O)Nc1ccc(CN2CCCC2)cc1
 : 1	0.67
O=C(Nc1ccccc1C(=O)N1CCCCC1)c1cccc(S(=O)(=O)N2CCCCC2)c1
 : 1.1	1.3
O=C(NCc1ccc(F)cc1)c1cccc2c1C(=O)N(Cc1cccnc1)C2
 : 1	0.025
Cc1[nH]c2ccc(Br)cc2c1CCNS(=O)(=O)c1ccc(F)cc1
 : 0.58	-0.42
CCN(CC)CCCNC(=O)c1cc2c(-c3cccc(OC)c3)nn(C)c2s1
 : 1.1	0.85
CCOc1ccc(NC(=O)N(CCN(C)C)C(C)c2ccncc2)cc1 (stereo not given)
 : 1	0.77
Cc1ccc2nc(SCC(=O)Nc3cccc(Cl)c3C)[nH]c2c1
 : 0.87	-0.87
COc1ccc(NC(=O)c2cnn3cccnc23)c(OC)c1
 : 1	0.34
O=C1Nc2ccccc2Oc2cc([N+](=O)[O-])cc(Oc3cccc(Cl)c3Cl)c21
 : 0.48*	-5.7*
Cc1nc(Nc2ccc(C(F)(F)F)cc2)c2c(C)c(C)sc2n1
 : 0.86	-1.3
CCOc1ccc(-c2cc(C(=O)NC3CCCCC3)c3ccccc3n2)cc1
 : 1.1	1.5
CCOCCCNC(=O)c1ccc2c(c1)N=C(CC)c1ccccc1S2
 : 0.85	-1.8
O=C(Nc1ccccc1C(=O)O)c1cc(S(=O)(=O)N2CCCC2)c(Cl)cc1Cl
 : 1	0.72
CCC(=O)Nc1ccc(S(=O)(=O)Nc2nc(C)cc(C)n2)cc1
 : 1.1	0.53
CCCCNc1nc(CC)c2c(c1C#N)CC(C)(C)OC2
 : 0.96	-0.5
COc1ccccc1OCC(=O)N(Cc1nc(-c2ccc(Cl)cc2)no1)C(C)C
 : 0.68	-3.2
CCN1CCN(C(=O)CN2C(=O)COc3ccc(S(=O)(=O)N(CC)CC)cc32)CC1
 : 1.1	1.7
Cc1onc(-c2ccccc2)c1C(=O)N1CCN(C/C=C/c2ccccc2)CC1
 : 1.1	0.9
CCOC(=O)c1oc2ccccc2c1NC(=O)c1cccc(OC)c1OC
 : 1.2	6.8
CC(=O)NC(CCS(C)(=O)=O)C(=O)Nc1ccc(C(C)C)cc1 (stereo not given)
 : 1	0.96
C=C(C)Cn1c(CCNC(=O)CC)nc2ccccc21
 : 1	0.28
COc1ccc(CCCc2nnc(SCC(=O)Nc3cccc(C)c3)o2)cc1C
 : 0.87	-1.5
Cc1nc(N2CCN(c3ccccn3)CC2)c2c(C)c(C(=O)N3CCOCC3)sc2n1
 : 0.95	-0.089
CCOC(=O)c1cnc2ccccc2c1NCCc1ccc(OC)c(OC)c1
 : 1.1	1.3
CC12CCC(C(=O)N(c3ccc(S(N)(=O)=O)cc3)C1=O)C2(C)C (stereo not given)
 : 0.8	-2
Cc1cc(NC(=O)C2(S(=O)(=O)c3ccc(Cl)cc3)CC2)no1
 : 1	0.4
Cc1nc2sc(C(c3cccs3)N3CCN(c4cccc(Cl)c4)CC3)c(O)n2n1 (stereo not given)
 : 0.93	-3.3
CCn1c(SCCOc2ccccc2F)nc2ccccc21
 : 1.2	0.61
COc1cccc(-n2ccnc2SCC(=O)Nc2nnc(C)s2)c1
 : 0.96	-1.3
Cc1ccc(-c2nc(Nc3ccc(Br)cc3)sc2CC(=O)O)cc1
 : 0.82	-2
CCOC(=O)Cc1csc(NC(=O)Nc2ccccc2)n1
 : 0.94	-1.5
O=C(CC(Nc1ccc2ccccc2c1)c1cccnc1)c1ccc(Br)cc1 (stereo not given)
 : 1	-0.027
CC(C)NCC(O)CNC(C)C1COc2ccccc2O1 (stereo not given)
 : 1	0.3

# Other entries follow:
# Values run as follows: CBX7 AlphaScr	CBX7 AlphaScr z-score
Clc1ccccc1Cn1c(-c2cccs2)nc2ccccc21
 : 0.59	-7.8
O=C(CCCCn1c(=O)[nH]c2ccccc2c1=O)N1CCN(c2ccccc2)CC1
 : 1	0.066
CCc1nc2cc(Br)c(C)c(C)c2nc1CC
 : 1.4	2.8
COc1ccc(CCNC(=O)C(=O)Nc2ccc(C)c(C)c2)cc1
 : 1.1	1.7
FC(F)(F)C1=CC(c2ccc(Cl)cc2)=NCCN1
 : 0.96	-0.4
CCN1CCN(C(=O)CN2C(=O)COc3ccc(S(=O)(=O)N4CCOCC4)cc32)CC1
 : 1.1	1.6
COc1ccc(CNc2nc(SCc3ccc(F)cc3)nc3ccccc23)cc1
 : 0.94	-3.3
CCN(CC)CCCNC(=O)CNC(=O)Cn1cnc2sc(C)c(C)c2c1=O
 : 1.1	0.61
Cc1ccc(Cn2nnc3c(=O)n(CC(=O)Nc4ccc(C)cc4)cnc32)cc1
 : 0.8	-3.3
Cc1cc2c(=O)n(CC(=O)NCC(=O)Nc3ccccc3F)cnc2s1
 : 1	-0.064
CCc1ccc(OCC(=O)Nc2ccc(S(=O)(=O)Nc3nc(C)cc(C)n3)cc2)cc1
 : 0.98	-0.52
Cc1ccccc1-c1nc(CS(=O)(=O)CC(=O)NCCCN2CC(C)CC(C)C2)c(C)o1 (stereo not given)
 : 0.93	-1.4
Cc1c(C(=O)Nc2ccc(F)cc2)oc2ccc(S(=O)(=O)N3CCCCCC3)cc12
 : 0.97	-1
CCc1ccc(NC(=O)c2cn(-c3ccc(C)c(C)c3)c(=O)c3ccccc23)cc1
 : 0.86	-0.9
CCc1nnc(NC(=O)CSc2nnc(-c3c[nH]c4ccccc34)n2CC)s1
 : 1	0.14
O=c1[nH]c(-c2ccccc2)cn1-c1ccc(F)cc1
 : 1.1	2.1
CCn1c(=O)cc(OCC(=O)Nc2ccc(C)cc2Cl)c2ccccc21
 : 0.86	-2.2
CCCCCc1ccc(-c2ccc(C(=O)Nc3ccc(C)c(Cl)c3)cc2)nc1
 : 1.1	0.25
CCOCCn1cnc2sc(C(=O)Nc3ccccc3F)c(C)c2c1=O
 : 1.1	0.82
Cc1cc(N2CCCCC2)nc2ccc(NC(=O)c3cccnc3)cc12
 : 0.66	-6.2
COc1ccc(Nc2ncc(C(=O)N3CCN(c4ccc(OC)cc4)CC3)c3ccccc23)cc1
 : 0.86	-5.5
COc1ccc(C(C(=O)NC2CCCC2)N2CCCC2)cc1 (stereo not given)
 : 1.1	2.4
CCN(CC)S(=O)(=O)c1ccc2c(c1)N(CC(=O)NCCN1CCOCC1)C(=O)CO2
 : 0.99	-0.37
CCOc1cc2[nH]c(=O)n(Cc3ccc(C(=O)NCCCN4CCCC4=O)cc3)c(=O)c2cc1OCC
 : 1	0.86
CCC(Sc1nc2ccccc2[nH]1)C(=O)Nc1nnc(C)s1 (stereo not given)
 : 1.1	0.51
COc1ccc(N(CC(=O)NCc2ccccn2)S(=O)(=O)c2c(C)nn(C)c2C)cc1
 : 1.2	1.4
